Source: PubChem (National Center for Advancing Translational Sciences (NCATS))
D2 potentiator: potentiates the human D2 dopamine receptor allosterically; 0.23% of 360,000 active; potentiation, % (concentration not given with the values); P14416; AID 624464; DiscoveRx D2 beta-arrestin cells, luminescence, 90 min; 100% = 57 uM dopamine signal; active = potentiation of 50% or more; inconclusive = 30% to 50%; inactive = 30% or less;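 note: compound concentration not given in the record; tested on top of an EC20 dose of dopamine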
Target sequence (P14416 whole entry, looked up): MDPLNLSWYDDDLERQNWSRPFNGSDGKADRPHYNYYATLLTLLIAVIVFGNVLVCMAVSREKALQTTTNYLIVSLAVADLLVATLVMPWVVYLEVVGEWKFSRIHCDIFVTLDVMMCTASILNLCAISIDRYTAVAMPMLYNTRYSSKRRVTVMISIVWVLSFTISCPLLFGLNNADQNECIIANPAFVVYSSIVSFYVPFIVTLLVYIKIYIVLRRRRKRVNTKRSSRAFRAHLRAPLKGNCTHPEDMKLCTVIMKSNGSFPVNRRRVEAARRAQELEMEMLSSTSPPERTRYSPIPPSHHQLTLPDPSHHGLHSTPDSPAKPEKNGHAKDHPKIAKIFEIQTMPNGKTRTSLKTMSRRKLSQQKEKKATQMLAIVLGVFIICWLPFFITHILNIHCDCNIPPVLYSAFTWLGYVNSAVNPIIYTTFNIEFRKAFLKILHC
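D2 cells co-treated with compound plus 50 nM dopamine (EC20) for 90 min at 37 deg C to detect potentiation. Beta-arrestin recruitment was read as enzyme-fragment luminescence after 1 h at ambient temperature. Full response was set by 57 uM dopamine.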
D2 ag: activates the human D2 dopamine receptor. activation, % (test concentration not listed). 0.084% of 360,000 active. DiscoveRx PathHunter D2 beta-arrestin, luminescence, 90 min; 100% = 57 uM dopamine signal. P14416; in the data active = activation above about 40%; inconclusive = about 15% to 40%; inactive = below about 15%; note: compound concentration not given in the record; the text of the record calls up to 30% inactive
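Agonist mode: compounds alone added to overnight-plated D2 PathHunter cells for 90 min at 37 C, with 57 uM final dopamine (EC100) defining full response. Beta-arrestin recruitment detected by chemiluminescent reagent, read after 1 h at ambient temperature.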
Six1-Eya2 blk: Six1/Eya2 interaction inhibition; Q15475+O00167; AlphaScreen GST-Six1/His-Eya2 binding, biochemical; hits give low values; control for the full effect not named in the record; activity change, % (test concentration not listed); 0.56% of 360,000 active; AID 651725; in the data active = activity change below about -65%; inconclusive = about -30% to -65%; inactive = above about -30%; note: % is set by controls: 0 for no effect and ±100 for the full control effect; compound concentration not given in the record
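Six1/Eya2 binding was read as AlphaScreen signal after compounds were pinned into GST-Six1 plus His-tagged Eya2 (5X stock 250/500 nM) in pH 8.0 Tris/NaCl/TCEP buffer, beads added, then incubated 1 h, 37 C, dark.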
PINK1 modulator: modulators of PINK1 expression | PINK1 immunofluorescence, high-content cytometry, 24 h | AID 624263 | Potency, µM (highest dose often 76.6 µM), without a hit: at the highest dose activation (PINK1 increase), usual class: activators | 0.2% of 410,000 active; active = well fitted activation curve with a large enough effect; inconclusive = small, poorly fitted or top-dose-only effect; inactive = flat fitted curve, though single readings scatter; cell line not stated here;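 note: potency is the fitted concentration of half-maximal effect; % of control where 0% means no effect; nearly all actives have a fitted effect of over 65% in size; a mitochondrial uncoupler was the plate control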
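Compound titrations (5 concentrations, 24 h) on a stable cell line; DMSO and CCCP controls. Endpoint: fixed-cell PINK1 immunofluorescence with mitochondrial, cell and nuclear markers, scanned by microplate cytometer.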
TRPML1 blocker: human mucolipin-1 channel inhibition | 0.02% of 390,000 active | activity change, negative = inhibition, % (concentration not given with the values) | TRPML1-inducible cells, Ca2+ dye fluorescence, FDSS; hits give low values; inhibition of EC80 agonist-evoked calcium signal; in the data active means activity change below about -50%; inconclusive means about -30% to -50%; inactive means above about -30%;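 note: stimulus is agonist 54-4 at its EC80 concentration; % is set by controls: 0 for no effect and ±100 for the full control effect; compound concentration not given in the record; the text of the record puts the active cut at -80%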
Target sequence (Q9GZU1 whole entry, looked up): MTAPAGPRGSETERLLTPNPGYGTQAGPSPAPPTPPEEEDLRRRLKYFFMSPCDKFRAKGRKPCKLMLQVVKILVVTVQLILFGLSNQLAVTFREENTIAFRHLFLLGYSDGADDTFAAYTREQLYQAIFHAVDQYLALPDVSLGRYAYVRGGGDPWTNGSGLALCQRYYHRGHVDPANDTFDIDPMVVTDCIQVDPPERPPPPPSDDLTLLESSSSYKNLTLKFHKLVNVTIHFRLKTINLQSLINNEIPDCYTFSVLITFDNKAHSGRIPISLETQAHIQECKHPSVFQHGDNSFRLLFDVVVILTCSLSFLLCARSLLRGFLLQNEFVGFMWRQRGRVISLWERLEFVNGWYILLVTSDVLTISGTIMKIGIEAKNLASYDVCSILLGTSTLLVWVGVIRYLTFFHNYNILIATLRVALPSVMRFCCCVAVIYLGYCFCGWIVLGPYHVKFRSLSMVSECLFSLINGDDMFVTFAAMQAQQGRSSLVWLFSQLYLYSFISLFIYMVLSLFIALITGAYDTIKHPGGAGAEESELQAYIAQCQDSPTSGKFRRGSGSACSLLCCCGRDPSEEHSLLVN
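Tet-induced TRPML1-DL cells loaded with Ca8 no-wash calcium dye were read kinetically on FDSS. Compound addition was followed by EC80 agonist 54-4 (4 uM final); inhibition was read over 110 s.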
TRPML1 agonist: activates the human TRPML1 channel; 0.12% of 410,000 active; activation, % (test concentration not listed); AID 624414; TRPML1-expressing cells, Ca2+ dye fluorescence, FDSS; host cell line not named in the record; reference of the full effect not given here; Q9GZU1; in the data active = activation above about 50%; inconclusive = about 30% to 50%; inactive = below about 30%; note: 0% is about no effect; the text of the record puts the active cut at 80%
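Tetracycline-induced TRPML1-DL cells are seeded and incubated overnight before loading with a no-wash Ca2+ dye and quencher. Agonist activity is taken from the 110 s fluorescence read following compound pin-transfer on an FDSS, before EC80 54-4 challenge.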
The depositor's hits bear a star; ? = inconclusive; / = no result given; & = joins results of further samples; [ ] = remark or other dose.

SMILES	D2 potentiator	D2 ag	Six1-Eya2 blk	PINK1 modulator	TRPML1 blocker	TRPML1 agonist
CC1=CC(C)(C)N(C(=O)CSc2nnc(-c3ccccc3)o2)c2ccc(C)cc21	-5	-4.0	-5	/	22	2.0
COc1ccc(-c2ccc(SCC(=O)NCc3ccco3)nn2)cc1	-10	-2.9	-5	1.6%[38.3 µM]	-2	-0.7
COC(=O)c1nnn(CC(=O)NC(=O)Nc2cccc(C)c2C)c1C(=O)OC	-3	-4.2	15	-0.7%&1.9%	10&4	1.4&5.3
CNC(=O)CC12CC3CC(CC(C3)C1)C2	10	0.0	6	4.3%[38.3 µM]	-6	-0.6
Cc1ccc(S(=O)(=O)Nc2nc3ccccc3s2)cc1[N+](=O)[O-]	-1	-6.0	-4	-0.2%	8	-1.5
Cc1ccsc1/C=N/N1CCOCC1	11	-5.3	-1	0.3%	4	0.0
COC(=O)[C@]1(Cc2ccccc2)N[C@H](c2ccc(-c3cccc(Cl)c3)cc2)[C@@H]2C(=O)N(C)C(=O)[C@@H]21	-6	-3.6	-8	0.4%	-6	0.7
Oc1cccc2ccc(/C=C/c3c(F)cccc3Cl)nc12	-12	-3.2	4	-1.6%	0	2.1
COc1ccc(S(=O)(=O)N2CCCCCC2)cc1C(=O)N(CC(C)C)C1CCS(=O)(=O)C1 (stereo not given)	-10	-1.9	8	-5.1%	-3	-0.2
COc1ccc(CN2C(=O)c3cccnc3C2=O)cc1S(=O)(=O)N1CCOc2ccccc21	-1	3.6	-6	-0.5%	7	4.4
Cc1nn(-c2ccccc2)c(C)c1/C=N/NC(=O)c1cc(O)cc(O)c1	14	?	-28	-0.7%	10	-0.4
CSc1ccc(CCNC(=O)c2ccc3c(c2)c(C)c(C)n3Cc2ccc(F)cc2)cc1	/	/	/	-1.5%	0	0.7
COc1ccc(-c2cc3nnc(-c4ccccc4)nc3s2)cc1	-6	-6.5	-3	0.6%	10	0.2
CN(C)CCNC(C(=O)Nc1cccc(S(=O)(=O)N2CCOCC2)c1)c1ccccc1 (stereo not given)	-3	-0.6	0	3.6%	10	0.3
CCOC(=O)c1ccc(N2C(=O)CC(SCC(=O)Nc3ccc(S(N)(=O)=O)cc3)C2=O)cc1 (stereo not given)	-9	-5.9	1	2.2%	10	-0.1
N#CC(c1nc2ccccc2nc1N1CCCC1)S(=O)(=O)c1cccs1 (stereo not given)	14	2.3	-12	-1.5%	-5	2.4
Cc1nnc(NC(=O)C2CC(=O)N(c3ccccc3)C2)s1 (stereo not given)	-6	-3.9	-6	1.3%	-11	0.0
COc1ccc2oc(C(=O)NCC(c3ccco3)N(C)C)c(C)c2c1 (stereo not given)	-11	-1.2	-9	-0.6%	3	-0.5
COc1ccc(/C=N/NC(=O)c2ccc(Cn3cc([N+](=O)[O-])cn3)o2)c(OC)c1C	-3	-4.0	-6	13%	15	0.0
CCn1c(=NC(=O)CSC(C)=O)sc2cc(OC)ccc21	-9	-5.7	-3	5.0%	6	0.3
CCN(CC)C(=O)C1=C(C)Nc2nc3ccccc3n2C1c1ccccc1F (stereo not given)	/	/	/	2.2%	57	-0.3
Cc1ccc(N2CC(C(=O)Nc3nnc(SCCN4CCOCC4)s3)CC2=O)cc1C (stereo not given)	2	-1.2	3	-2.9%	0	0.5
Cc1ccc(S(=O)(=O)N/N=C2/CC(=O)CC(C)(C)C2)cc1[N+](=O)[O-]	-2	-2.8	-2	1.3%	-1	-0.4
CCN(CC)S(=O)(=O)c1ccc(Oc2ccccc2)cc1	-8	-1.9	17	0.7%[38.3 µM]	-12	2.0
CC(=O)N=c1sc(C(C)(C)C)c(C)n1C	-12	-4.8	14	0.3%	-10	-0.8

The listing continues.
SMILES	D2 potentiator	D2 ag	Six1-Eya2 blk	PINK1 modulator	TRPML1 blocker	TRPML1 agonist
CC1CCC(NCc2ccco2)CC1 (stereo not given)	-5	0.6	7	1.6%	3	0.6
COc1ccc(C(=O)COC(=O)c2cc(=O)c3ccccc3o2)cc1	-6	-1.6	-2	-1.9%	1	2.5
NS(=O)(=O)c1ccc(NC(=O)C2COc3ccccc3O2)cc1 (stereo not given)	3	1.0	4	-1.5%	2	-0.6
Cc1ccc([C@@H]2[C@@H]3C(=O)N(C)C(=O)[C@@H]3[C@]3(C)C(=O)N(Cc4ccccc4)CC(=O)N23)o1	-5	-4.9	5	1.2%	0	-0.2
CCc1ccc(CNC(=O)CCN2C(=O)COc3ccccc32)cc1	/	/	/	-0.1%	-4	-0.8
O=C1N(Cc2ccccc2F)c2ccccc2C12OCCCO2	-12	-3.0	6	2.5%[38.3 µM]	-13	3.6
O=C(/C=C/c1ccccc1)N/C(=C\c1ccco1)C(=O)O	-3	4.6	7	7.6%	5	1.2
CSCCC(NC(=O)c1cc(S(=O)(=O)N2CCOCC2)ccc1F)c1nc2ccccc2[nH]1 (stereo not given)	-2	-5.3	0	-0.2%	-14	2.8
Cc1ccnc(NC(=O)CCNC(=O)c2ccc(Cl)cc2)c1	-12	1.9	15	0.0%	-11	-0.3
Cc1ccc(NC2=NC3(CCCC3)N=C(N)N2)c(C)c1	-14	-0.3	1	4.7%	13	0.0
COC(=O)c1ccccc1-n1cccc1C(=O)NP(=O)(N1CCOCC1)N1CCOCC1	-8	-1.9	10	-0.7%	12	1.7
c1ccc(CNc2nc(N3CCOCC3)nc(N3CCOCC3)n2)cc1	-12	-1.9	2	3.7%[38.3 µM]	-4	4.6
COCCNC(=O)C(C)Oc1ccccc1 (stereo not given)	-9	-0.3	3	0.1%	-10	-0.4
CC1=NN(/C(=N\c2nnc(C)s2)Nc2ccccc2)[C@H](c2cccc3ccccc23)S1	-17	-5.9	-19	-0.3%	-6	2.4
COc1ccccc1NC(=O)COC(=O)c1cnccn1	15	1.0	1	-1.1%	-6	-0.2
CCc1ccc(N(CC(=O)NC(C)(C)CC)C(=O)CCC(=O)Nc2nccs2)cc1	-4	-4.8	0	0.4%	-2	-0.4
COc1cc(OC)cc(-c2c(-c3cccs3)c3cc(-c4ccc(OCc5ccccc5)cc4)ccc3n2C)c1	-6	-0.4	10	0.2%	-29	-0.5
Cc1ccc(C(=O)N2CCN(c3ccccc3)CC2)cc1S(=O)(=O)N1CCCC1	2	-0.6	4	1.4%	20	2.6
CON/C=N/C(=S)Nc1ncc(C(F)(F)F)cc1Cl	2	4.1	-1	0.6%	23	-0.6
COc1ccc(CCNC(=O)/C=C/c2ccc3ccccc3n2)cc1OC	-3	1.2	-15	-1.1%	9	-0.5
CC(=O)c1cccc(NC(=S)NC2CCCCC2)c1	-20	-2.9	-2	-0.9%	5	-0.8
CSc1ncnc2c1ncn2CCCNCCCN1CCCC1=O	0	-8.0	1	0.2%	10	-0.4
CCOC(=O)/C(C#N)=C/c1c(N2CCN(CC)CC2)nc2c(C)cccn2c1=O	-5	-2.4	-10	-2.1%	-20	4.0
COCCCN1CC(=O)N2C(c3cccc(C)c3)c3[nH]c4ccccc4c3C[C@H]2C1=O (stereo not given in full)	-1	2.6	-6	2.3%	10	3.1
N#Cc1ccc2ccn(CC(=O)NCc3ccco3)c2c1	-3	3.9	-14	-1.1%	22	0.5

Later entries:
SMILES	D2 potentiator	D2 ag	Six1-Eya2 blk	PINK1 modulator	TRPML1 blocker	TRPML1 agonist
CC[C@]1(C(=O)OC)[C@H]2C(=O)N(Cc3ccccc3)C(=O)[C@H]2[C@H]2CN(C)C(=NC)N21	-1	-1.6	7	-0.7%	21	2.2
CC1(C(=O)Nc2ccc3ccccc3c2)CC1(Br)Br (stereo not given)	3	-0.3	3	2.1%	7	0.2
O=C1Nc2ccc(S(=O)(=O)NCc3ccco3)c3cccc1c23	19	4.0	-10	-0.3%	-11	0.5
Cc1cc(Cl)c(OCCCN2CCCCC2)c(Br)c1	-15	-1.4	2	3.8%	-9	-0.7
Cc1ccc(NC(=O)c2ccccc2-c2ccccc2C(=O)O)cc1C	-1	2.6	-2	2.2%	14	-0.1
Cc1cc(C)cc(NC(=O)CSc2nc3nc(C)cc(C)n3n2)c1	3	0.9	-16	1.9%	-6	-0.2
Cc1ccc(N(C(C)C(=O)N2CCN(Cc3ccccc3)CC2)S(C)(=O)=O)cc1 (stereo not given)	-16	-3.2	-8	-0.7%	-20	0.4
COc1ccc(CC(=O)OCC(=O)NC2CCCC(C)C2C)cc1 (stereo not given)	-7	-4.4	1	-0.5%	32	0.3
CN(CCOc1ccc(Cl)cc1)c1ccc(S(=O)(=O)N2CCCCC2)cn1	5	-1.8	2	0.7%	16	-0.2
O=C(CNS(=O)(=O)c1ccc([N+](=O)[O-])cc1)N/N=C/c1ccc(O)cc1O	9	-2.8	-73*	-2.3%	7	2.4
COc1cccc(C2(c3cccc(OC)c3)CC2C(=O)Nc2ccccc2Cl)c1 (stereo not given)	-10	0.9	10	12%	56	4.1
COCCNC(=O)[C@@H]1CSC2c3ccc(OC)c(OC)c3C(=O)N21 (stereo not given in full)	-8	-10	-5	-0.4%	/	/
CC1=C(C(=O)N(C)C)CC(CC(=O)NCCN2CCOCC2)C(=O)N1CCC1=CCCCC1 (stereo not given)	-2	-8.5	0	1.6%	-11	-0.1
Cc1cccc(OCCn2cnc(Cl)c2Cl)c1	-1	-3.6	-19	2.5%	-3	2.2
N#Cc1c(NC(=O)CSc2n[nH]c(Cc3ccccc3)n2)oc(-c2ccccc2)c1-c1ccccc1	-17	0.2	-17	6.2%	-7	1.3
O=C(O)CN1CCN(Cc2ccc(Cl)cc2)C1=O	-10	-0.7	4	0.9%	-8	1.0
CN(Cc1ccccc1)C(=O)c1cn(C)c2ccc(S(=O)(=O)N3CCCC3)cc2c1=O	-8	-2.6	4	0.1%	14	-0.5
Cc1cccc(C)c1NC(=O)C1(NC(=O)c2cnccn2)CCCCC1	-12	-4.8	14	4.5%	4	0.7
Cc1ccc(S(=O)(=O)N2CCN(c3nc(CN4CCCC4)nc4sc(C)c(C)c34)CC2)cc1	-5	0.1	-5	1.1%	-5	-0.4
COc1ccc(C2=NOC(C(=O)Nc3cc(C)nn3-c3ccccc3)C2)cc1OC (stereo not given)	-8	-3.4	1	1.3%	-10	0.0

Reformatted field by field: entries from further up.
O=C1Nc2ccc(S(=O)(=O)NCc3ccco3)c3cccc1c23
- D2 potentiator = 19
- D2 ag = 4.0
- Six1-Eya2 blk = -10
- PINK1 modulator = -0.3%
- TRPML1 blocker = -11
- TRPML1 agonist = 0.5

Cc1cc(Cl)c(OCCCN2CCCCC2)c(Br)c1
- D2 potentiator = -15
- D2 ag = -1.4
- Six1-Eya2 blk = 2
- PINK1 modulator = 3.8%
- TRPML1 blocker = -9
- TRPML1 agonist = -0.7

Cc1ccc(NC(=O)c2ccccc2-c2ccccc2C(=O)O)cc1C
- D2 potentiator = -1
- D2 ag = 2.6
- Six1-Eya2 blk = -2
- PINK1 modulator = 2.2%
- TRPML1 blocker = 14
- TRPML1 agonist = -0.1

Looked up by compound from the entries so far:
SMILES	D2 potentiator	D2 ag	Six1-Eya2 blk	PINK1 modulator	TRPML1 blocker	TRPML1 agonist
Cc1cccc(OCCn2cnc(Cl)c2Cl)c1	-1	-3.6	-19	2.5%	-3	2.2
N#Cc1c(NC(=O)CSc2n[nH]c(Cc3ccccc3)n2)oc(-c2ccccc2)c1-c1ccccc1	-17	0.2	-17	6.2%	-7	1.3
